From PubChem
Sa ugtP lethal: kills S. aureus RN4220 lacking UgtP; 330,000 tested, 0.54% active; growth inhibition, % (no concentration beside the values); S. aureus RN4220 ugtP deletion, OD600 growth, 16 h; some inactives read as strong as hits; AID 1259309;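 active = z-score under -3 and OD600 up to 0.15 on both plates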;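 note: plate controls were untreated wells for no effect and antibiotic for full effect; wells of about 80 µL received 100 nL stock; the first replicate is given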
Bead autofluor: flagged as autofluorescent in microsphere protease counterscreen; compound autofluorescence counterscreen, microsphere flow cytometry; stronger effect = higher value; fluorescence intensity (test concentration not listed); 360,000 tested, 3.1% active; AID 624483;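 active = at least 3 SD above the mean of all compounds, about 16000 in these data; inconclusive = too few beads counted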;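 note: 100 nL of 1 mM stock went into each well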
RN4220 kill: kills Staphylococcus aureus RN4220; S. aureus RN4220 growth, OD600, 16 h; inhibition, % (concentration not given with the values); 330,000 tested, 0.33% active; AID 1259311;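 active = z-score of -3 or lower and OD600 up to 0.18 on both plates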;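 note: plate controls were untreated cells for no effect and reference antibiotic for full effect; stock transfer was 100 nL into about 80 µL; one replicate is shown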
BJeLR viability: kills HRASV12-expressing BJeLR cells; BJeLR (HRASV12) viability, CellTiter-Glo ATP luminescence, 48 h; reference of the scale not given here; inhibition, % (no concentration beside the values); 300,000 tested, 0.17% active; AID 1554;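 active = replicate mean above 50%; inconclusive = above 50% but judged a plate artefact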;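 note: 50 nL library stock added to about 25 µL; numbers are from one replicate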
PrP UTR inh: inhibition of PrP 5' UTR reporter expression. 340,000 tested, 0.35% active. inhibition, % (no concentration beside the values). cell-based PrP 5' UTR mRNA reporter, plate reader;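 active = every replicate at 50% or more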;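 note: 0 = median of the neutral control wells; tested in H4 reporter cells; numbers are from one replicate; inactives centre near -14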
Mtb hypoxia rep: reduces hypoxia-regulated biosensor signal in M. tuberculosis. M. tuberculosis hypoxia-regulated fluorescent reporter, fluorescence. fluorescence inhibition, % (concentration not given with the values). 300,000 tested, 0.1% active. AID 1159583;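 active = 35 to 45% if threefold the growth effect, above 45% if 1.5-fold the growth effect; inactive = the rest, general growth blockers included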;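 note: wells of about 50 µL received 100 nL stock; 0% = vehicle wells and 100% = reference inhibitor wells; whole bacteria with a GFP reporter of the hypoxia response; strong numbers were not always called active; many hits fall short of the cut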
Mtb hypoxia rep growth: also measured in Mtb hypoxia rep; calls as there; growth inhibition, %; measured here: M. tuberculosis growth (absorbance);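 0% = vehicle and 100% = reference antibiotic; read after six days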
An asterisk follows results filed as active; ? = inconclusive; . = not tested or not shown; & = joins results of further samples.

Order of results: Sa ugtP lethal | Bead autofluor | RN4220 kill | BJeLR viability | PrP UTR inh | Mtb hypoxia rep | Mtb hypoxia rep growth
(1) Cc1cc2n(n1)C(c1cn(-c3ccccc3)nc1C)Nc1c(C)cccc1-2 (configuration not stated)
 : 3 | ? | 0.5 | 3 | -13 | 7 | 2
(2) COc1cccc(C=Nn2cnc3ccccc32)c1OC
 : -9 | . | 2.0 | . | . | 12 | 5
(3) Cn1c(=O)c([N+](=O)[O-])c(N2CCSCC2)c2ccccc21
 : 1 | 5844 | 3.5 | -5 | -11 | 11 | 14
(4) COC(=O)CN1C(=O)[C@H]2[C@@H](C3CC3)N3C(=O)CN(CCO)C(=O)[C@@]3(Cc3ccccc3)[C@H]2C1=O
 : . | 2971 | . | -3 | -19 | . | .
(5) Brc1ccc(-c2nnc3sc(CNCc4ccc5c(c4)OCO5)cn23)cc1
 : 13 | 4476 | 16 | -3 | -6 | 3 | 3
(6) CCc1cc(=O)oc2cc(C)c(CN3CCCC(C)C3)c(O)c12 (configuration not stated)
 : 12 | 9940 | 0.3 | -1 | -13&-23 | 10 | -1
(7) CCN(CC)S(=O)(=O)c1ccc(-c2nnc(SCc3nnc(-c4ccccc4)o3)o2)cc1
 : -1 | 11567 | -0.2 | 3 | -7 | -3 | 1
(8) COc1cc(/C(C)=N/NC(=O)CN2CCN(S(=O)(=O)c3ccc(C)cc3)CC2)ccc1O
 : . | 4294 | . | 5 | -2 | . | .
(9) Cc1ccsc1C(=O)Nc1ccccc1N1CCCC1
 : 8 | ? | 9.8 | -4 | -15 | 8 | -1
(10) C[C@@H](C(=O)NCCc1ccc(F)cc1)N1C(=O)N2CCc3c([nH]c4ccccc34)[C@@]2(C)C1=O
 : -8 | 5997 | 2.9 | 0 | 9 | . | .
(11) CCOCCCNC(=O)c1ccc2c(c1)ncn2-c1ccccc1OC
 : 5 | 2995 | 4.2 | 5 | -3 | -4 | -8
(12) CCOCCCn1c(SC(C)C(=O)NCC2CCCO2)nc2sc(C)c(C)c2c1=O (configuration not stated)
 : 10 | 6184 | 4.4 | . | -29 | -4 | -3
(13) O=C(CCCOc1ccc(Cl)cc1)NC1CCCCC1
 : 5 | 3872 | 1.1 | 7 | -19 | 12 | 10
(14) CC(C)CC(c1nnnn1Cc1ccccc1)N1CCN(C(=O)c2ccco2)CC1 (configuration not stated)
 : -6 | 2638 | 10 | 7 | -1 | . | .
(15) O=C1Cc2cc([N+](=O)[O-])ccc2N1c1c(Cl)cccc1Cl
 : 8 | 2950 | 0.4 | 1 | -13 | 8 | 0
(16) O=C(O)CSc1nnc(COc2cccc3ccccc23)o1
 : 8 | 3410 | 5.2 | 1 | -7 | 1 | 7
(17) COc1ccc(CNC(=O)CN(c2ccc(OC)c(Cl)c2)S(=O)(=O)c2ccc(C)cc2)cc1
 : 2 | 5751 | -5.3 | -3 | 8 | 4 | 6
(18) O=c1cc(-c2ccccc2)[nH][nH]1
 : 2 | 9102 | 9.3 | 1 | -30 | 11 | 3
(19) Oc1ccc(/C=N/Nc2nc(-c3ccccc3F)nc3ccccc23)c(O)c1
 : . | 3425 | . | 8 | 8 | . | .
(20) Cc1cc(N2C(=O)C3C4C=CC(C4)C3C2=O)no1 (configuration not stated)
 : -4 | 8554 | 3.3 | -9 | -22 | 5 | 4
(21) O=C(CN1C(=O)c2ccccc2C1=O)NCCc1c[nH]c2ccccc12
 : 7 | 2687 | 5.0 | 1 | -13 | 3 | -3
(22) Cc1oc2c(O)c(O)ccc2c(=O)c1-c1ccc(Cl)cc1
 : -5 | 3199 | 4.2 | -6 | -12 | 1 | -3
(23) COc1cccc(NC2c3ccccc3C(=O)N2Cc2ccccc2Cl)c1 (configuration not stated)
 : 3 | 4631 | 4.1 | 4 | -5 | 1 | 2
(24) CCOc1ccccc1C(=O)NCC(=O)N1CCC(C)CC1
 : 4 | 2814 | 2.5 | . | -27 | 0 | 6
(25) c1ccc(-c2cn(-c3ccccc3)c3[n+]2CCS3)cc1
 : 6 | 4382 | 3.1 | 12 | -26 | 2 | 7
(26) CCC(C)NC(=O)C1c2ccccc2Oc2ccccc21 (configuration not stated)
 : 4 | 4429 | 1.9 | -5 | -14 | 9 | -8
(27) CC(c1ccncn1)N(C)Cc1nc(-c2ccc(C(F)(F)F)cc2)no1 (configuration not stated)
 : 11 | 2469 | 5.9 | -4 | -6 | 8 | 3
(28) CC(OC(=O)CNC(=O)c1ccco1)C(=O)N(C)c1ccccc1 (configuration not stated)
 : 0 | 5131 | -0.3 | -5 | -36 | 3 | 4
(29) NC(=O)C1CCN(Cc2nnnn2Cc2ccco2)CC1
 : 10 | 3240 | 2.9 | -6 | 3 | . | .
(30) COc1ccc(C)cc1NC(=O)c1ccc(NC(=O)CC2SC(N3CCCC3)=NC2=O)cc1 (configuration not stated)
 : -4 | 6223 | 3.2 | -19 | -2 | -5 | 11
(31) N#CC(=C1SC=CS1)c1nc(-c2ccccc2)cs1
 : 20 | 5933 | -5.6 | 0 | -81 | 9 | 4
(32) C=CCn1c(SCc2cc(=O)n3ccsc3n2)nc2cc(Cl)ccc2c1=O
 : 5 | 4612 | -0.6 | 6 | -22 | 19 | 13
(33) CCCNC(=O)C1CC(=O)N(c2ccc(OCc3ccc(Cl)cc3)cc2)C1 (configuration not stated)
 : 0 | 3549 | 0.8 | -2 | -41 | 17 | 6
(34) CC(=NNS(=O)(=O)c1ccc(Br)cc1)c1c[nH]c2ccccc12
 : -1 | . | 0.7 | . | . | 0 | -3
(35) COc1ccc(CCn2c(C)cc(C(=O)COC(=O)c3cnccn3)c2C)cc1
 : -4 | 6913 | 4.0 | -4 | -14 | 18 | 9
(36) COc1cccc(CNC(=O)CCCCCn2c(=S)[nH]c3ccc(N4CCOCC4)cc3c2=O)c1
 : 6 | . | 0.5 | 0 | . | 4 | 1
(37) O=C(c1cnccn1)N(c1ccccc1)C1(C(=O)NC2CCCCC2)CCCCC1
 : 0 | 4710 | 4.7 | -5 | -13 | -8 | -6
(38) Cn1cc(S(=O)(=O)NCc2ccc(Cl)cc2)c(=O)n(C)c1=O
 : 2 | 4487 | 1.4 | 1 | -10 | 1 | 5
(39) O=C1CC(c2cccc(Cl)c2)CC(O)=C1C=Nc1ccccc1 (configuration not stated)
 : 6 | 4317 | 1.2 | -13 | 5 | 3 | 2
(40) COc1ccc(CN2CCNC(=O)C2CC(=O)NC2CC(C)(C)CC(C)(C)C2)cc1OC (configuration not stated)
 : 5 | 6490 | 0.2 | -2 | -7 | 4 | 6
(41) Cc1ccc(C(=C2C3C=CC2C2C(=O)NC(=O)C32)c2ccc(C)cc2)cc1 (configuration not stated)
 : -15 | 20213* | 1.5 | 9 | -28 | -2 | 9
(42) COc1ccc(N=Nc2ccc(O)c(P(=O)(c3ccccc3)c3ccccc3)c2)cc1
 : 5 | 4015 | 3.7 | -7 | -9 | 14 | 11
(43) CCOC(=O)c1ccc(NC(=O)c2nc[nH]c2C(=O)N2CCc3ccccc3C2)cc1
 : . | 4161 | . | 9 | -15 | . | .
(44) CCn1c(SCC(=O)NNC(=O)c2ccccc2)nnc1-c1ccco1
 : -5 | 4452 | -3.5 | -2 | -13 | 2 | -5
(45) CSc1nccc(-c2c(-c3ccc(Cl)cc3)noc2C)n1
 : 30 | 3193 | 3.4 | 13 | -15 | 7 | 2
(46) O=C(Nc1ccc(Cl)cc1)c1ccc(OC2CSC2)cc1
 : 2 | 4181 | 7.1 | 7 | -56 | 10 | -1
(47) CN(C)c1ccc(NC(=S)c2ccccn2)cc1
 : 26 | 2212 | 5.7 | 13 | 83* | 16 | 0
(48) O=C(CSc1nnc(-c2ccccn2)o1)Nc1ccccc1C(F)(F)F
 : -4 | 5372 | 7.1 | 0 | -29 | 26 | 21
(49) Cc1ccc(C2CC(c3ccc(Br)cc3)=NN2C(=O)CSC2=NN3CCCC(=O)N=C3S2)cc1 (configuration not stated)
 : 4 | 5209 | -0.3 | -5 | -8 | 4 | 6
(50) COc1cccc(N2CCN(C(=O)c3ccc(-c4ccccc4)cc3)CC2)c1
 : -5 | 6120 | 8.9 | 0 | -11 | 11 | 3
(51) COCCCn1c(SCc2nnc(-c3ccc(OC)c(OC)c3)o2)nc2ccccc2c1=O
 : -5 | 6109 | 4.8 | -4 | -8 | 7 | 4
(52) CNC(=O)NC(=O)C(C)Oc1ccccc1F (configuration not stated)
 : 7 | 3686 | 10 | 0 | -13 | -10 | 4
(53) CCO[C@H]1OC(C(=O)NCc2ccccc2)=C[C@@H](C(C)(C)C)[C@@H]1CCCO
 : . | 4147 | . | -6 | -5 | . | .
(54) CCC(Sc1nc2ccccc2[nH]1)C(=O)Nc1ccc(NC(C)=O)cc1 (configuration not stated)
 : 5 | 4741 | 1.4 | -4 | -18 | 2 | -2
(55) O=c1[nH][nH]c(-c2ccccc2O)c1C(C[N+](=O)[O-])c1cccc(Cl)c1 (configuration not stated)
 : 2 | 2063 | 3.6 | -4 | -2 | 6 | 6
(56) Cc1oc(S(=O)(=O)N2CCCCC2)cc1NC(=O)Nc1ccc(F)cc1
 : 0 | 4259 | 0.4 | 1 | -9 | 2 | 6
(57) S=c1nc[nH]c2c1ncn2-c1ccccc1
 : -2 | 3437 | 2.1 | . | -16 | 20 | 13
(58) Cc1ccc(/C=c2\sc3n(c2=O)CN(c2cccc(Br)c2)CN=3)o1
 : . | 4017 | . | 4 | -24 | . | .
(59) Cc1cc(C)c(C)c(S(=O)(=O)NCC(=O)NCC2CCCCC2)c1C
 : -8 | 3952 | 0.5 | -4 | -17 | -5 | -8
(60) CCOC(=O)C1=C(CBr)NC(=O)NC1C (configuration not stated)
 : 7 | 4815 | 4.8 | 7 | -17 | 16 | -4

(next part)
Order of results: Sa ugtP lethal | Bead autofluor | RN4220 kill | BJeLR viability | PrP UTR inh | Mtb hypoxia rep | Mtb hypoxia rep growth
(61) O=C(COc1ccccc1)NCC(=O)NC1CCCCC1
 : 0 | 4058 | 1.9 | 1 | -1 | 9 | 22
(62) O=C(c1ccccc1NS(=O)(=O)c1ccc(F)cc1F)N1CCCCC1
 : -5 | 3573 | 11 | . | -25 | 3 | 4
(63) Cc1[nH]c(=O)[nH]c(=O)c1Sc1ccccc1[N+](=O)[O-]
 : 1 | 3803 | 5.6 | -9 | -15 | -9 | 5
(64) O=S(=O)(NCC1(N2CCOCC2)CCCCC1)c1ccccc1Cl
 : 7 | 4502 | 6.6 | -18 | -7 | 4 | -5
(65) CCOC(=O)C(=CNc1cc(C)nn1-c1ccc(Cl)cc1)C(=O)OCC
 : -9 | 3114 | 2.6 | 8 | -9 | -5 | 15
(66) O=C(NCCc1ccccc1)C1CCN(S(=O)(=O)c2cccc3nonc23)CC1
 : 3 | 5018 | 0.1 | 5 | -9 | . | .
(67) CCOC(=O)c1cc(-c2cccnc2)nn1-c1ccccc1C
 : -12 | 4953 | 0.5 | 1 | 4 | -3 | 13

Single records, as listed above. Order of values: Sa ugtP lethal | Bead autofluor | RN4220 kill | BJeLR viability | PrP UTR inh | Mtb hypoxia rep | Mtb hypoxia rep growth
`O=C(NCCc1ccccc1)C1CCN(S(=O)(=O)c2cccc3nonc23)CC1` in the list: 3 | 5018 | 0.1 | 5 | -9 | . | .
`O=C(COc1ccccc1)NCC(=O)NC1CCCCC1` in the list: 0 | 4058 | 1.9 | 1 | -1 | 9 | 22
`CCOC(=O)C(=CNc1cc(C)nn1-c1ccc(Cl)cc1)C(=O)OCC` in the list: -9 | 3114 | 2.6 | 8 | -9 | -5 | 15
`O=C(c1ccccc1NS(=O)(=O)c1ccc(F)cc1F)N1CCCCC1` in the list: -5 | 3573 | 11 | . | -25 | 3 | 4
`Cc1[nH]c(=O)[nH]c(=O)c1Sc1ccccc1[N+](=O)[O-]` in the list: 1 | 3803 | 5.6 | -9 | -15 | -9 | 5
